Hsc70 ATP site = small molecules displacing fluorescent ligand from Hsc70 – biochemical, fluorescence polarization, primary screen (AID 568). Hsc70 fluorescence polarization, probe displacement; higher % means a stronger effect; strong numbers were not always called active. displacement, % at 20 µM, or IC50 in µM where a hit was titrated. 83,000 tested, under 10 active;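 active means displacement above 50% without optical interference and an IC50 on retest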;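 further: ATPase domain with a fluorescein-tagged ATP probe; 0% = vehicle and 100% = excess ADP; read after one hour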
WNV NS2B-NS3 inh = WNV NS2B-NS3 proteinase inhibition; P06935; WNV NS2B-NS3 protease, fluorogenic substrate Ex360/Em465; stronger effect = lower value; z-score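 (tested at a level between 10 and 100 µM)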; 0.18% of 65,000 active; AID 577;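 active means z-score at -3 or under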;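 further: score is relative to mean and spread of the compound wells of a plate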
Target sequence (P06935 1371-1501 limits assumed): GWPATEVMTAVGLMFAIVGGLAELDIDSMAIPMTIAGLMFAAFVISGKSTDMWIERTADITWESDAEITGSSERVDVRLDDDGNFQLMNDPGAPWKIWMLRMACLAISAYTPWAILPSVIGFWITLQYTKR
Target sequence (P06935 1502-1679 limits assumed): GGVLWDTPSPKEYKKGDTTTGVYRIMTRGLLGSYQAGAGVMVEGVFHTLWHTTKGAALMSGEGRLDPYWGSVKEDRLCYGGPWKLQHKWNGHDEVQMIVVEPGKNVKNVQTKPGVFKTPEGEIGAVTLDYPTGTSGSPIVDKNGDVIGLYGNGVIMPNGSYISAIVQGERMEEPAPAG
MT1-MMP reporter = MT1-MMP gene expression reporter suppression – cell-based, luciferase reporter, luminescence (AID 618); 0.62% of 87,000 active; calls from a first round at 10 µM; hits with a dose series show EC50 in µM; MT1-MMP promoter luciferase reporter cells, luminescence;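 active means over half of the reporter light lost at 10 µM or EC50 under 50 µM; inactive means the rest and hits that failed the dose series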;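 further: actives suppress MT1-MMP promoter-driven transcription so potencies describe inhibitors; HT1080 fibrosarcoma cells; overnight exposure; toxic or luciferase-blocking compounds were not removed from the actives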
* marks the source's active call; other numbers are inactive results; i = inactive; nt = no result given; + = active, no number. Not all compounds are listed, so the mix of outcomes need not match the whole.

canonical_smiles	WNV NS2B-NS3 inh	Hsc70 ATP site	MT1-MMP reporter
CCCN1C(=O)C(O)(CC(=O)c2ccc3c(c2)OCCO3)c2ccccc21 (stereo unspecified)	0.07	4.8%	i
O=S(=O)(NCc1ccccc1)c1cccc2cccnc12	nt	-0.2%	i
Cc1ccc(N2CC(C(=O)NC3CCSC3=O)CC2=O)cc1 (stereo unspecified)	0.4	-3.0%	i
CCN(CC)C(c1ccc(F)cc1)c1nnnn1C1CCCCC1 (stereo unspecified)	-0.81	-4.1%	i
ON=C1/C(=N\O)CC2(C/C1=N/O)OCCO2	-0.15	-3.9%	i
CC(C)N(C=O)C1(C(=O)NC2CCCCC2)CCCCC1	-0.02	2.4%	i
CCN(CC)CCN1C(=O)c2ccccc2NC1c1ccc(C)cc1 (stereo unspecified)	nt	-1.3%	i
CCCC(NS(=O)(=O)c1ccc(Br)cc1)C(=O)O (stereo unspecified)	0.97	0.4%	i
CCN(CC)C(=O)C1CC(=O)OC12CCCCC2 (stereo unspecified)	nt	-1.8%	i
COc1ccc(-n2c(SCC(=O)Nc3ccc4c(c3)OCO4)nc3c(c2=O)SCC3)cc1	0.51	-1.2%	i

Reformatted with two lines to a compound: part of the list above
Order of values – WNV NS2B-NS3 inh | Hsc70 ATP site | MT1-MMP reporter
> O=S(=O)(NCc1ccccc1)c1cccc2cccnc12
  nt | -0.2% | i
> Cc1ccc(N2CC(C(=O)NC3CCSC3=O)CC2=O)cc1 (stereo unspecified)
  0.4 | -3.0% | i

Next part:
canonical_smiles	WNV NS2B-NS3 inh	Hsc70 ATP site	MT1-MMP reporter
CC1=C(C(=O)OC(C)C)C(c2cccs2)n2ncnc2N1 (stereo unspecified)	0.08	5.4%	i
c1ccc2c(c1)CCN(c1nc3cc4c(cc3s1)OCCO4)C2	0.36	-6.4%	+
CC1CCN(S(=O)(=O)c2cccc(-c3nnc(-c4cccnc4)o3)c2)CC1	0.78	5.7%	i
Cn1c(NCc2c[nH]c3ccccc23)nc2ccccc21	1.4	-0.5%	i
CCOC(=O)c1ccccc1NC(=O)c1ccc(F)cc1	nt	1.7%	i
Cc1ccc(SCCN2C(=O)NC(C)(C)C2=O)cc1	-0.56	-3.0%	i
CCn1c(SCC(=O)N2CCCC2)nc2c1c(=O)n(C)c(=O)n2C	-0.34	5.5%	i
Cc1nc(-c2ccccc2)nc2[nH]ccc(=O)c12	nt	0.5%	i
Cc1ccc(CNC(=O)CCCOc2cc(=O)n(C)c3ccccc23)o1	-0.22	2.2%	i
CC(NC(=O)C1CC=CCC1C(=O)O)C1CC2CCC1C2 (stereo unspecified)	1.1	3.1%	i
O=C(CSc1nc2c(cnn2-c2ccccc2)c(=O)[nH]1)N1CCOCC1	-0.07	-3.4%	i
CC(C)NC(=O)c1n[nH]c(=O)c2ccccc12	1	3.9%	i
COC(=O)c1cc(C(=O)OC)cc(N2C(=O)CC(Sc3nc(C)cc(C)n3)C2=O)c1 (stereo unspecified)	0.56	-5.9%	i
Nc1nc(CN2CCN(c3ccc(F)cc3)CC2)nc(N2CCCc3ccccc32)n1	0.52	-1.6%	i
O=S(=O)(C/C(=C/CO)S(=O)(=O)c1ccccc1)c1ccccc1	0.04	-1.8%	i
CC1CCN(C(=O)CN(CCc2ccccc2)S(C)(=O)=O)CC1	0.76	-3.6%	i
Cc1cnc(C(=O)OCC(=O)Nc2cccc(Cl)c2)cn1	-0.61	-0.4%	i
COC(=O)c1ccc(C2NC(=O)NC(C)=C2C(=O)N(C)C)cc1 (stereo unspecified)	-0.62	4.7%	i
O=C(CSCC(=O)OCn1nnc2ccccc2c1=O)Nc1ccc(Cl)cc1	-2.2	-3.3%	i
CC(C)CC(=O)Nc1ccc(Oc2ccc(NC(=O)CC(C)C)cc2)cc1	nt	-1.8%	i
COc1ccccc1N1CCN(C(=O)c2ccc(Br)s2)CC1	-0.99	3.3%	i
COC(=O)C1=C(C)N(C)C(C)=C(C(=O)OC)C1c1ccc(Cl)cc1	nt	0.6%	i
COc1ccc(S(=O)(=O)CCC(=O)NCCc2cccc(C)c2)cc1	nt	-7.6%	i
COc1cc(-n2nnnc2SCC(=O)N2CCN(c3ccc(F)cc3)CC2)c(OC)cc1Cl	0.62	1.2%	i
Cc1ccc(NC(=S)NCc2cccn2C)cc1	nt	2.0%	i
CCCCOCCCNC(=O)Cc1ccccc1OC	-0.85	-2.3%	i
CCOc1ccc2nc(NCCNC(=O)Nc3ccccc3)c(C#N)cc2c1	1.9	-5.3%	i
Cc1c(Cl)cccc1NC(=O)CCCCCN1C(=O)CCC1=O	0.04	-1.6%	i
Cc1ccc(CCN2C(=O)CCC2(C)C(=O)NC2CCCC2)cc1 (stereo unspecified)	-0.05	3.1%	i
N#Cc1c(-c2ccc(Cl)cc2)ccn2nc(C3CCCCC3)nc12	nt	-21%	i
Cc1ccccc1C(=O)NC1CCN(CC(=O)Nc2nccs2)CC1	-0.1	-4.8%	i
CCN(CC)c1ccc(NS(=O)(=O)c2ccc3c(c2)oc(=O)n3C)c(C)c1	0.07	-2.0%	i
CCCc1nc(SCc2cccnc2)c2c(=O)n(C)c(=O)n(C)c2n1	0.71	4.5%	i
COc1ccc2nc(NC(=O)CSc3nnnn3C3CCCCC3)sc2c1	1.8	2.8%	i
CC(C)(Oc1ccc(Cl)cc1)C(=O)Nc1ccncc1	nt	2.6%	i
Cc1ccccc1N(CC(=O)NCCSCc1ccco1)S(C)(=O)=O	-1.4	0.5%	i
Cn1c(SCC(=O)Nc2ccccc2)nnc1-c1ccc(NC(=O)CCc2ccccc2)cc1	nt	3.7%	i
COc1cc(N2CCCC2)c(OC)cc1/C=C(/C#N)c1cccc(F)c1	nt	-58%	i
COc1ccc(-c2nnc(SC(C)C#N)o2)cc1 (stereo unspecified)	0.2	7.7%	i
O=P(OC1CCCCC1)(OC1CCCCC1)C(O)c1ccccc1 (stereo unspecified)	nt	0.6%	i
CC(=O)C1=C(O)C(=O)N(Cc2cccnc2)C1c1ccc(C)cc1 (stereo unspecified)	nt	-4.4%	i
COC(=O)c1cccc(N2C(=O)C(Cl)=C(N3CCOCC3)C2=O)c1	0.0031	-2.5%	i
CCn1c(SCC(N)=O)nnc1-c1ccco1	0.6	0.6%	i
Cc1cc(C(=O)Nn2cnnc2)cs1	0.84	2.4%	i
c1ccc(-n2c(SCc3nc(-c4cccs4)no3)nnc2-c2ccco2)cc1	-0.9	2.4%	i
CC(=O)c1c(C)[nH]c(C(=O)NCCc2ccccc2)c1C	1.3	6.0%	i
CC(C)C(=O)Nc1ccc(Cc2ccc(NC(=O)C(C)C)c(O)c2)cc1O	nt	4.0%	i
CCOC(=O)C1=C(C)N=C(/N=C/N(C)C)SC1c1ccccc1 (stereo unspecified)	0.27	2.3%	i
COc1ccc(CNC2=CC(=O)CC(C)(C)C2)cc1	0.13	-1.4%	i
COc1ccc(Nc2cc(C)nc3nc(C)nn23)c(OC)c1	-0.9	2.1%	i

Other records follow:
canonical_smiles	WNV NS2B-NS3 inh	Hsc70 ATP site	MT1-MMP reporter
O=C1c2oc3ccc(Br)cc3c(=O)c2C(c2cccnc2)N1Cc1ccco1 (stereo unspecified)	0.02	-0.7%	i
CSc1ccc(NC(=O)N2CC(C)OC(C)C2)cc1 (stereo unspecified)	-0.68	3.7%	i
CC(=O)Oc1cccc(/C=c2\sc3nc(-c4ccco4)nn3c2=O)c1	-0.19	-8.7%	i
COc1cccc(N2CCN(C(=O)c3ccc4nc(N5CCCCC5)sc4c3)CC2)c1	0.24	7.3%	i
CCOC(=O)c1ccc(NC(=O)c2nn(CC)cc2Br)cc1	-0.46	-3.0%	i
CC1(C)CC(=O)c2cnc(NC(=O)CCc3ccccc3)nc2C1	0.76	-3.8%	i
COc1ccc(C(CCc2ccc(C)o2)NC(=O)Nc2ccc(OC)cc2OC)cc1 (stereo unspecified)	0.28	-1.2%	i
O=C(NC(=S)N1CCCCC1)c1cccnc1	nt	-6.1%	i
CCC1(C)NC(=O)N(CC(=O)Nc2sc3c(c2C(N)=O)CCC3)C1=O (stereo unspecified)	0.12	0.1%	i
CCC(C)NC(=O)c1ccccc1NC(=O)CN(c1ccc(OC)cc1)S(C)(=O)=O (stereo unspecified)	nt	6.6%	i
O=C(/C=C/Nc1cccc(O)c1)c1ccccc1	-0.63	-17%	1.3µM*
COCCn1c(SCC(=O)Nc2ccc3c(c2)OCCO3)nnc1-c1c[nH]c2ccccc12	0.04	0.0%	i
O=C(CCCCn1c(=S)[nH]c2ccsc2c1=O)NCc1ccco1	-0.63	2.4%	i
S=C(Nc1ccccc1)N1N=CCC1c1ccccc1 (stereo unspecified)	nt	5.1%	i
COc1ccccc1Nc1ncc(C(=O)N2CCC(C(N)=O)CC2)c2ccccc12	-0.21	-4.9%	i
O=C(CCCCC(=O)NCc1cccs1)NCc1cccs1	0.9	8.0%	i
O=C(O)[C@H](CO)Nc1ncnc2sc3c(c12)CCC3	nt	1.6%	i
CN(CC(=O)Nc1nc2ccc(F)cc2s1)S(=O)(=O)c1ccc(Cl)cc1	nt	2.4%	i
Cc1ccc(NC(=O)c2ccc(NS(=O)(=O)c3c(C)noc3C)cc2)cc1C	-0.79	0.9%	i
COCC(N)(c1ccccc1)c1nc2ccccc2n1C (stereo unspecified)	-0.31	-5.3%	i
Cc1ccc(C(c2sc3nc(C)nn3c2O)N2CCN(c3ccccc3F)CC2)cc1 (stereo unspecified)	-0.52	-4.1%	i
O=C(Cn1cnc2ccccc2c1=O)NCC1COc2ccccc2O1 (stereo unspecified)	nt	2.5%	i
O=C(NC1CCCCCC1)c1c(O)c2cccc3c2n(c1=O)CCC3	-0.61	-2.6%	i
CCSc1ncnc2c1sc1nc(-c3ccco3)c3c(c12)CC(C)(C)OC3	nt	-2.9%	i
CCCSc1ccc2nc(NC(=O)OC)[nH]c2c1	0.72	-2.8%	i
Cc1ccc(S(=O)(=O)NC(=O)N2CCCC(C)(C)C2)cc1	-0.71	-0.2%	i
O=C(Nc1nc2ccccc2n1CCOc1ccccc1)c1ccco1	-1.1	-4.1%	i
Cc1nn(-c2ccc(Cl)cc2)c2[nH]c(=O)c(CNCc3ccc4c(c3)OCO4)cc12	0.67	-7.3%	i
COc1ccc(OC)c(N(CC(=O)N2CCc3ccccc3C2)S(C)(=O)=O)c1	nt	-1.7%	i
C=CCn1c(N)cc(=O)nc1SCC(=O)Nc1ccc2ccccc2c1	nt	1.3%	i
COc1ccc(-n2c(Cc3cccn3C)nnc2SCC(N)=O)cc1	-0.3	0.0%	i
O=C1NC(Cc2c[nH]c3ccccc23)C(=O)N1CCOc1ccc(F)cc1 (stereo unspecified)	-0.58	1.4%	i
Cc1ccc(C)c(N2CCN(c3cc(C)nc4nnnn34)CC2)c1	0.64	0.8%	i
CCOC(=O)c1sc(C)nc1C1CCN(C(=O)OCC)CC1	1.3	2.6%	i
O=C(OCc1nnc(-c2ccccc2)o1)c1ccc2c(c1)C(=O)N(CCc1ccccc1)C2=O	-1.1	-5.4%	i
CCCS(=O)(=O)N1CCC(C(=O)NCCCOC)CC1	0.65	-1.3%	i
O=C(CN1C(=O)NC2(CCCCCCC2)C1=O)N1CCN(C(=O)c2ccco2)CC1	nt	-2.2%	i
Cc1cc(C)n(C(=O)C2CCCN2S(=O)(=O)c2ccc(Cl)cc2)n1 (stereo unspecified)	0.12	2.9%	i
CCC(=O)N(Cc1cc2cc(C)c(C)cc2[nH]c1=O)C1CCCCC1	0.01	-5.6%	i
CCOc1ccccc1-n1nnnc1SCC(=O)NC(=O)NCc1ccco1	-0.3	-2.7%	i

Copied from the list.
Hsc70 ATP site, O=C(OCc1nnc(-c2ccccc2)o1)c1ccc2c(c1)C(=O)N(CCc1ccccc1)C2=O : -5.4%
WNV NS2B-NS3 inh, CCCS(=O)(=O)N1CCC(C(=O)NCCCOC)CC1 : 0.65
WNV NS2B-NS3 inh, CCC(=O)N(Cc1cc2cc(C)c(C)cc2[nH]c1=O)C1CCCCC1 : 0.01
WNV NS2B-NS3 inh, COc1ccc(-n2c(Cc3cccn3C)nnc2SCC(N)=O)cc1 : -0.3

Later entries.
canonical_smiles	WNV NS2B-NS3 inh	Hsc70 ATP site	MT1-MMP reporter
CCN1CCN(c2nc3c(c(=O)n(C)c(=O)n3C)n2Cc2cccc3ccccc23)CC1	0.18	-6.2%	i
CCN1C(=O)c2cccc3c(S(=O)(=O)NCCCN4CCOCC4)ccc1c23	-0.04	3.0%	i
COc1cccc(C2N(c3cccc(Cl)c3)C(=O)C3CCCN32)c1OC (stereo unspecified)	-0.46	-5.8%	i
O=C1CC(N2CCN(c3ccc(C(=O)c4ccc(F)cc4)cc3)CC2)C(=O)N1 (stereo unspecified)	-0.13	-2.6%	i
COc1ccc2[nH]c(=O)c(CN(Cc3cccs3)Cc3nnnn3Cc3ccccc3)cc2c1	nt	-4.8%	i
CC(=O)N1CCN(Cc2ccc(Br)s2)CC1	-1	4.3%	i
COc1ccc(C2C3=C(N=C4SCC(=O)N42)c2ccccc2CC3)cc1 (stereo unspecified)	-0.42	-3.1%	i
O=C(Nc1nncs1)c1ccccc1Br	-0.53	-1.1%	i
CCOC(=O)c1c(C)nc2cc(C)ccn12	0.54	2.8%	i
Cc1ccc2nc3sc(C(=O)N4CCOCC4)c(N)c3cc2c1	-0.61	14%	+

Compound activity: PubChem, several laboratories
